# TRPV1 PAM = potentiators of human vanilloid receptor 1 (TRPV1); Q8NER1; TRPV1-expressing cells, Fluo-8 calcium influx, capsaicin EC20 potentiation; host cell line not named in the record; control for the full effect not named in the record; potentiation, % at 8.33 µM; actives 0.02% (n = 320,000); AID 540277; active means potentiation above 80%; inconclusive means 30% to 80%; inactive means below 30%; further: 0% is about no effect
#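 Cells expressing TRPV1 were dye-loaded with Fluo-8 and read kinetically: 10 s baseline, 3 min after compound (agonist portion), then 2 min after EC20 capsaicin (allosteric enhancer portion). Calcium-bound dye fluorescence at 480/520 nm.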
# PINK1 modulator = modulators of PINK1 expression. PINK1 immunofluorescence, high-content cytometry, 24 h. Potency, µM (highest dose often 76.6 µM), inactives show at the top dose activation (PINK1 increase), usual class: activators. actives 0.2% (n = 410,000); active = well fitted activation curve with a large enough effect; inconclusive = small, poorly fitted or top-dose-only effect; inactive = flat fitted curve, though single readings scatter; cell line not stated here;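 further: potency means the concentration at half of the fitted maximal effect; % of control where 0% means no effect; nearly all actives have a fitted effect of over 65% in size; a mitochondrial uncoupler was the plate control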
#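 PINK1 protein level read as immunofluorescence by microplate cytometer in a fixed, stained stable cell line after 24 h exposure to five compound concentrations, with CCCP as control.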
# D2 PAM = potentiates the human D2 dopamine receptor allosterically. P14416. DiscoveRx D2 beta-arrestin cells, luminescence, 90 min; 100% = 57 uM dopamine signal. potentiation, % (concentration not given with the values). actives 0.23% (n = 360,000); active = potentiation of 50% or more; inconclusive = 30% to 50%; inactive = 30% or less;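 further: compound concentration not given in the record; tested on top of an EC20 dose of dopamine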
#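 PathHunter D2 cells, attached overnight at 37 deg C, received compound in DMSO plus dopamine at EC20 (50 nM final) for 90 min at 37 deg C. Beta-arrestin recruitment was read as luminescence after 1 h with detection reagent at ambient temperature.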
# D2 agonist = human D2 receptor agonism in beta-arrestin assay; actives 0.084% (n = 360,000); P14416; activation, % (no concentration beside the values); DiscoveRx PathHunter D2 beta-arrestin, luminescence, 90 min; 100% = 57 uM dopamine signal; in the data active = activation above about 40%; inconclusive = about 15% to 40%; inactive = below about 15%; further: compound concentration not given in the record; the text of the record calls up to 30% inactive
#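 DiscoveRx PathHunter D2 beta-arrestin cells (2,100/well) attached overnight, then compound-stimulated 90 min at 37 C in HBSS/10 mM HEPES/0.1% Tween-20 buffer; beta-galactosidase complementation read by luminescence after 1 h at ambient temperature. Dopamine 57 uM final (EC100) as control.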
# CtBP-E1A blk = CtBP/E1A binding inhibition; AlphaScreen GST-E1A/His-CtBP binding, 1536-well; stronger effect = lower value; control for the full effect not named in the record; actives 0.49% (n = 340,000); AID 651724; activity change, % (test concentration not listed); in the data active means activity change below about -65%; inconclusive means about -30% to -65%; inactive means above about -30%; further: on the % scale 0 is the no-effect control and ±100 the full control effect; compound concentration not given in the record
#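 Homogeneous bead-based format: GST-tagged E1A captured on glutathione donor beads, His-tagged CtBP on nickel acceptor beads; compounds precede bead addition by 2 h at 37 °C.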
# Sfp PPTase inh = Sfp phosphopantetheinyl transferase inhibition. Potency, µM, inactives show max response, negative = inhibition, actives largely listed as inhibitors. Biochemical Sfp PPTase activity, qHTS. Q9F4F7. AID 1490. actives 3.5% (n = 310,000); active means well fitted inhibition curve with a large enough effect; inconclusive means small, poorly fitted or top-dose-only effect, or another doubt; inactive means no such curve, though single readings can be large or run the other way;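 further: the enzyme is Sfp with the accession as filed and its product quenches rhodamine fluorescence; potency means the concentration at half of the fitted maximal effect; 0% = enzyme reaction without inhibitor and -100% = no enzyme wells; top concentration of the series not given in the record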
#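 With Hepes-Na pH 7.6 buffer containing 10 mM MgCl2, Sfp (15 nM) modified BHQ-2-YbbR (12.5 uM) using rhodamine-CoA (5 uM). Two reads 30 minutes apart at 525/598 nm yielded each well's rate.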
# Six1-Eya2 blk = blocks human Six1 binding to Eya2 | Q15475+O00167 | AlphaScreen GST-Six1/His-Eya2 binding, biochemical; stronger effect = lower value; control for the full effect not named in the record | activity change, % (test concentration not listed) | actives 0.56% (n = 360,000) | AID 651725; in the data active = activity change below about -65%; inconclusive = about -30% to -65%; inactive = above about -30%; further: on the % scale 0 is the no-effect control and ±100 the full control effect; compound concentration not given in the record
# Target sequence (O00167 whole entry, looked up): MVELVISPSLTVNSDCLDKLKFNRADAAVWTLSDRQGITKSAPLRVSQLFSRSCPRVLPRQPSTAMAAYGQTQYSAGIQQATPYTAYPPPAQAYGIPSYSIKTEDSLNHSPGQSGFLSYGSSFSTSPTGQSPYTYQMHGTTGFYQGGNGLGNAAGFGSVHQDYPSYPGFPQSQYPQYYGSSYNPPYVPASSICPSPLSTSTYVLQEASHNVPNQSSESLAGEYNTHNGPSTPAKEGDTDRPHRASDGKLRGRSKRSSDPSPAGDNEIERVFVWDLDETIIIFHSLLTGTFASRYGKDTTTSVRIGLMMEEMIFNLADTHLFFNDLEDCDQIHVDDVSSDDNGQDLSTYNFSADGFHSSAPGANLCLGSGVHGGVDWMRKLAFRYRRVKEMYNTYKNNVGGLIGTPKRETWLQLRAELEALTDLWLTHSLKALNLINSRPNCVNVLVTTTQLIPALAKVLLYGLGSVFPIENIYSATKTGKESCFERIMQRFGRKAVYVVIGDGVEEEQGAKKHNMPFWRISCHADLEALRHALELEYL
# Target sequence (Q15475 whole entry, looked up): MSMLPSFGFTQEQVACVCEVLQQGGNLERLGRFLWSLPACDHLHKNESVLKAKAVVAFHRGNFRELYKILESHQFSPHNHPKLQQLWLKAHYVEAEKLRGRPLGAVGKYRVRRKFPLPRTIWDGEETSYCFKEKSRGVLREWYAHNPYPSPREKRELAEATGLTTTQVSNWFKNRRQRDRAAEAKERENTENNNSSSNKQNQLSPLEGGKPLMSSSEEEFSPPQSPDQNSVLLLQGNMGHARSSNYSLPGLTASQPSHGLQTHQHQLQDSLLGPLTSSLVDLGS
#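 AlphaScreen luminescence read after one hour at 37 °C in darkness. Pin-transferred compounds met GST-Six1 and His-Eya2 protein (5X stock 250 nM/500 nM) plus glutathione donor and Ni-chelate acceptor beads (5X, 50 ug/mL).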
# * = called active by the depositor; ? = inconclusive; . = not tested or not shown; [ ] = remark or other dose.
SMILES,TRPV1 PAM,PINK1 modulator,D2 PAM,D2 agonist,CtBP-E1A blk,Sfp PPTase inh,Six1-Eya2 blk
CCCCn1c(N)c(N(CC)C(=O)c2ccc(C)cc2)c(=O)[nH]c1=O,6,-0.5%,-5,-2.8,0,-1%,3
O=C(Nc1ccc2ccccc2c1)c1cccnc1,10,0.7%,-29,-0.7,1,13%,-1
O=C(CSCc1ccccn1)Nc1ccccc1,0,1.1%,2,-1.4,1,11%,7
S=C(NCCCN1CCOCC1)Nc1cccc(Cl)c1,12,0.2%,-22,-4.2,-10,7%,5
CCc1ccc(NC(=O)CCCOc2cc(=O)n(C)c3ccccc23)cc1,.,1.1%,-2,2.3,-8,.,1
O=C1NC(=Nc2cccnc2)S/C1=C/c1ccc(F)cc1,18,7.2%,-5,0.6,4,5%,-12
Cc1n[nH]c(C)c1CS(=O)(=O)c1ccccc1,-10,1.6%,0,-1.3,-22,-4%,-8
CCSc1nnc(NC(=O)c2ccc(F)c(S(=O)(=O)N3CCOCC3)c2)s1,-11,-2.0%,12,2.0,-2,.,11
COc1cc(/C(C)=N/N2CCOCC2)cc(OC)c1OC,6,-2.3%,?,-2.9,.,11%,0
Cc1cc(N/C=C/C(=O)c2ccc(Br)cc2)no1,5,1.1%[38.3 µM],-8,-1.4,-4,-4%,3
COc1ccc(N2CCN(Cc3nc4ccsc4c(=O)[nH]3)CC2)cc1,2,?,-3,-2.4,3,-4%,-3
COc1cccc(C(=O)NC(=S)Nc2ccc(N(C)C)cc2)c1,2,0.5%,-18,-2.2,?,?,?
COC(=O)CSc1nnc(CNc2ccc(F)cc2)o1,10,-0.5%,-5,-1.5,3,6%,5
CC(C)(CNC(=O)c1cccc(S(=O)(=O)Nc2ccc(SC(F)F)cc2)c1)N1CCOCC1,.,-0.1%,1,2.6,0,.,-1
CC1CN(C(=S)Nc2ccccc2)N(c2ccccc2)C1 (centres undefined),-5,-0.4%,1,-2.5,2,6%,-1
Cc1ccc(N2C(S)=C(C#N)C(=O)NC23CCCCC3)cc1,4,0.0%,-26,-4.9,-7,20µM*,4
O=C(NCc1cccs1)C1CCCN(S(=O)(=O)c2ccc3c(c2)OCO3)C1 (centres undefined),12,-1.1%,-27,-0.4,-3,-5%,0
COc1cccc(CNS(=O)(=O)c2cc3c(cc2Cl)NC(=O)CO3)c1,8,1.5%,1,-2.4,1,3%,-2
O=C(O)C1CCCCC1C(=O)Nc1ccc(OCc2ccccc2)cc1 (centres undefined),7,0.2%,-4,-2.6,8,18%,-3
COc1ccc(C(=O)COc2ccccc2N2C(=O)C3C4C=CC(C4)C3C2=O)cc1 (centres undefined),4,-2.3%,-38,-6.6,-2,3%,-4
O=C(COC(=O)c1ccc(O)cc1)Nc1cc(C(F)(F)F)ccc1N1CCOCC1,3,2.4%,3,11,6,.,1
COc1ccc(C2CC2/C(=N/OC(=O)c2cccs2)c2ccccc2)cc1 (centres undefined),21,4.2%,8,7.3,10,-8%,-4
Cc1ccc(N2C(=O)N(CC(=O)Nc3ccc(C)c(C)c3[N+](=O)[O-])C(=O)C2C)cc1 (centres undefined),3,1.1%,-4,-5.5,-7,19%,5
Cc1csc(NC(=O)CSc2nnc(C)s2)n1,15,-1.9%,6,-2.4,1,-10%,-3
NS(=O)(=O)c1ccc2ccccc2c1,-4,2.8%,0,-1.0,2,5%,2
CCN(CC)S(=O)(=O)c1cc([N+](=O)[O-])ccc1NNC(=O)Nc1ccc(Cl)c(Cl)c1,5,14µM*,-3,3.6,-4,?,-17
OCCN(Cc1ccccc1)Cc1ccc(F)c(F)c1,-7,2.8%[38.3 µM],-8,1.1,12,2%,6
c1csc(-c2csc3ncnc(NCCCN4CCOCC4)c23)c1,-1,2.0%[38.3 µM],-15,0.5,0,-6%,2
COc1ccc(-n2c(SCc3nnc(-c4ccccc4)o3)nnc2-c2ccccc2)cc1,1,0.3%,-8,-2.3,-6,15%,-8
CC(=O)Nc1cccc(OCc2ccc(F)cc2)c1,-9,0.4%,-8,9.0,26,7%,11

# Some of these compounds in order of molar mass, largest number first.
SMILES,TRPV1 PAM,PINK1 modulator,D2 PAM,D2 agonist,CtBP-E1A blk,Sfp PPTase inh,Six1-Eya2 blk
O=C(COC(=O)c1ccc(O)cc1)Nc1cc(C(F)(F)F)ccc1N1CCOCC1,3,2.4%,3,11,6,.,1
Cc1ccc(N2C(=O)N(CC(=O)Nc3ccc(C)c(C)c3[N+](=O)[O-])C(=O)C2C)cc1 (centres undefined),3,1.1%,-4,-5.5,-7,19%,5
O=C(NCc1cccs1)C1CCCN(S(=O)(=O)c2ccc3c(c2)OCO3)C1 (centres undefined),12,-1.1%,-27,-0.4,-3,-5%,0
COc1cccc(CNS(=O)(=O)c2cc3c(cc2Cl)NC(=O)CO3)c1,8,1.5%,1,-2.4,1,3%,-2
c1csc(-c2csc3ncnc(NCCCN4CCOCC4)c23)c1,-1,2.0%[38.3 µM],-15,0.5,0,-6%,2
Cc1ccc(N2C(S)=C(C#N)C(=O)NC23CCCCC3)cc1,4,0.0%,-26,-4.9,-7,20µM*,4
Cc1csc(NC(=O)CSc2nnc(C)s2)n1,15,-1.9%,6,-2.4,1,-10%,-3
OCCN(Cc1ccccc1)Cc1ccc(F)c(F)c1,-7,2.8%[38.3 µM],-8,1.1,12,2%,6
CC(=O)Nc1cccc(OCc2ccc(F)cc2)c1,-9,0.4%,-8,9.0,26,7%,11
NS(=O)(=O)c1ccc2ccccc2c1,-4,2.8%,0,-1.0,2,5%,2

# The listing continues.
SMILES,TRPV1 PAM,PINK1 modulator,D2 PAM,D2 agonist,CtBP-E1A blk,Sfp PPTase inh,Six1-Eya2 blk
COc1ccc(/C=N/n2c(C)nc3ccccc3c2=O)cc1OC,-20,6.9%,-3,-3.2,-1,25%,9
CC(C)c1ccc(NC(=O)N2CCN(S(=O)(=O)c3ccccc3)CC2)cc1,2,-1.7%,-2,2.0,8,23%,-3
O=C(Cc1ccc(Cl)cc1)Nc1ncccn1,8,-1.3%,-17,0.2,-6,15%,2
Cc1cccc(N(C(=O)CCC(=O)Nc2cc(C)on2)C(C(=O)NC2CCCC2)c2ccncc2)c1 (centres undefined),2,-0.2%,-12,-1.9,-2,9%,-1
CCc1cc2c(=O)n(-c3ccccc3)c(=S)[nH]c2s1,8,-4.7%[38.3 µM],-1,1.0,3,2%,3
CN(c1cccc2cccnc12)S(=O)(=O)c1ccccc1,22,0.2%,-3,-6.5,3,1%,2
C[N+]12CCCCC1[C@@H](CO)CCC2 (some centres undefined),7,0.8%,-3,-1.6,4,3%,0
CCN(CC)C(=O)CSc1nnc([C@@H](NC(=O)OC(C)(C)C)C(C)C)o1,12,1.5%,-11,-0.7,-9,9%,5
Cc1cc(C)c2c(=O)[nH]n(C3CC(C)N(C)CC3C)c2n1 (centres undefined),-10,-2.5%,-7,-3.5,5,14%,3
COCCN(CC(=O)Nc1cccc(C)c1C)C(=O)Cc1ccsc1,.,1.8%,3,2.5,.,.,5
CC(C)(C)C1CCC(C(=O)NCC(c2cccs2)N2CCOCC2)CC1 (centres undefined),-5,0.4%,0,0.4,-5,4%,-7
CN(C)c1c(F)cc(C(=O)NCc2ccccc2)cc1F,-9,-0.4%,-9,-1.8,-1,20%,-2
O=C(NCCN1CCCCCC1)C1CCCN1S(=O)(=O)c1cccc2nsnc12 (centres undefined),4,0.9%,-1,0.7,3,1%,1
CCCOC(=O)c1ccc(-c2ccc(C=O)o2)cc1,-6,3.0%,12,-1.8,15,-7%,22
CCOC(=O)C1(C)CCN1C(=O)c1oc2ccccc2c1C (centres undefined),.,0.0%,-2,-2.0,4,.,1
O=C(CCc1c[nH]c2ccccc12)N1CCN(S(=O)(=O)c2ccccc2)CC1,15,-2.1%,-67,-1.7,-2,.,-2
CC(C)C[C@H]1CNC(=O)C(=O)N1C[C@@H]1CCCN1C[C@H](Cc1ccccc1)N1C[C@H](Cc2ccccc2)N(CC2CCCCC2)C(=O)C1=O,.,-0.1%,.,.,0,.,0
Cc1c(/C=N\NC(=O)c2cc3ccccc3o2)c2ccccc2n1C,4,9.3%,-6,-4.7,.,9%,-5
COc1ccc(N2CCN(CCNC(=O)c3c(C)cc(=O)oc3C)CC2)cc1,-11,2.3%[38.3 µM],-14,-2.5,-4,7%,-9
COC(=O)c1ccc(S(=O)(=O)NCc2ccc(OC)cc2)n1C,-11,-0.9%,-4,-3.5,1,6%,3
Cc1ccc([C@@H]2CC=C(C(=O)O)[C@H](c3ccc(F)cc3)N2S(=O)(=O)c2ccc(C)cc2)cc1,-5,1.1%,-12,-2.9,.,.,1
CCc1nc2ccc(C(=O)NCCC(C)C)cn2c1N(C)Cc1nccs1,.,-0.3%,-5,4.5,-22,.,10
COc1ccc(OC)c(NC(=O)C2C3CC4OC(=O)C2C4C3)c1 (centres undefined),3,0.9%,-2,-0.8,6,20%,-1
Cc1cccc(C(=O)N[C@H](C(=O)NCc2cccs2)C(C)C)c1,.,-0.9%,-22,-2.6,12,.,2
CC(CN1CCOCC1)OC(=O)c1cccs1 (centres undefined),6,0.4%,1,-2.7,-5,?,13
CC(=O)Nc1c(C(=O)N2CCOCC2)sc2nc3c(cc12)COC(C)(C)C3,-7,4.6%[38.3 µM],-7,-1.4,-10,8%,-1
CN(Cc1c(C(=O)N2CCCCCCC2)nc2ccc(Cl)cn12)C1CCOC1 (centres undefined),-1,-1.0%,-7,-4.1,14,6%,2
CCn1c(=O)c2cc(C(=O)N3CCN(C)CC3)sc2c2ccccc21,-5,-0.2%,-8,-4.7,4,14%,-6
Cn1cnnc1SCC(=O)Nc1ccccc1,3,3.6%,-5,1.9,5,10%,4
Cc1ccc(-n2ncc3c2CC(C)(C)CC3NC(=O)c2ccc[n+]([O-])c2)cc1 (centres undefined),4,2.6%,-14,-4.1,-4,10%,2

# Source: PubChem (National Center for Advancing Translational Sciences (NCATS))
